Beta apoptosis – beta cell apoptosis inhibition | 300,000 tested, 0.8% active | INS-1E cytokine-induced death, ATP luminescence, 48 h; percent of positive-control rescue, neutral wells zero | protection from apoptosis, % (no concentration beside the values) | AID 435005;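 active = all replicates at 75% or more, or half of them and the mean; inconclusive = half reach 75% but not the mean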;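 note: 0% = cytokine-treated negative control wells and 100% = positive control rescue; higher means more ATP so stronger rescue from cytokine killing; wells of about 40 µL received 100 nL stock; the first replicate is given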
Vif TR-FRET – HIV-1 Vif–A3G interaction blockers – biochemical, TR-FRET, GST-Vif 1-94, biotin-A3G peptide, dose response retest, primary screen (AID 1117319). one-dose inhibition, %; IC50 in µM for titrated hits. TR-FRET GST-Vif / biotin-A3G peptide binding; higher % means a stronger effect; test concentration not given here; strong numbers were not always called active. 260,000 tested, 0.57% active;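 active = above the screen mean plus three standard deviations and confirmed in dose response; inconclusive = results disagree or hit not tested in dose response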;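 note: Vif residues 1-94 fused to GST binding biotinylated APOBEC3G peptide 110-148; 0% = full assay without inhibitor and 100% = GST in place of GST-Vif; retest series ran down from 100 µM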
A1 inh – inhibitors of the anti-apoptotic protein A1, read as caspase activation. MEF A1-2A-BIM cells, Caspase-Glo 3/7 luminescence, 3 h; percent of clofoctol response, vehicle zero. caspase activation, % (test concentration not listed). 330,000 tested, 0.066% active. AID 2462;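 active = over half of replicate activation scores above 10%, or exactly half above 10 with the replicate mean above 10; inconclusive = replicate mean below 10 yet half the replicates above 10; inactive = over half of replicates below 10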;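 note: wells of about 30 µL received 50 nL stock; many hits fall short of the cut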
Calb FLC – affects C. albicans growth with fluconazole. C. albicans CaCi-2 (fluconazole-resistant clinical isolate) + fluconazole, Alamar Blue growth, 48 h. growth inhibition, % (concentration not given with the values). 300,000 tested, 0.57% active;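 active = most replicates above 75%; inconclusive = exactly half above 75%; inactive = most below 75%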;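 note: all wells also contain fluconazole at 8 µg/ml as a sub-toxic cotreatment; 0% = median of DMSO wells and 100% = median of geldanamycin control wells; wells of about 8 µL received 7.5 nL stock; the first replicate is given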
AF4-AF9 inh – blocks AF4 peptide binding to human AF9 | 350,000 tested, 0.47% active | inhibition, % at 10 µM | P42568 | AlphaScreen, biotin-AF4 peptide binding to FLAG-AF9;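 active = every replicate reaching a set inhibition limit, whatever the replicate mean, cut at about 25% in these data; inconclusive = mean inhibition reaches that limit but some replicates miss it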;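 note: 0% = plate neutral control median and 100% = total signal loss; the record names both 10 and 1 µM as test concentration; the first replicate is given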
Target sequence (P42568 whole entry, looked up): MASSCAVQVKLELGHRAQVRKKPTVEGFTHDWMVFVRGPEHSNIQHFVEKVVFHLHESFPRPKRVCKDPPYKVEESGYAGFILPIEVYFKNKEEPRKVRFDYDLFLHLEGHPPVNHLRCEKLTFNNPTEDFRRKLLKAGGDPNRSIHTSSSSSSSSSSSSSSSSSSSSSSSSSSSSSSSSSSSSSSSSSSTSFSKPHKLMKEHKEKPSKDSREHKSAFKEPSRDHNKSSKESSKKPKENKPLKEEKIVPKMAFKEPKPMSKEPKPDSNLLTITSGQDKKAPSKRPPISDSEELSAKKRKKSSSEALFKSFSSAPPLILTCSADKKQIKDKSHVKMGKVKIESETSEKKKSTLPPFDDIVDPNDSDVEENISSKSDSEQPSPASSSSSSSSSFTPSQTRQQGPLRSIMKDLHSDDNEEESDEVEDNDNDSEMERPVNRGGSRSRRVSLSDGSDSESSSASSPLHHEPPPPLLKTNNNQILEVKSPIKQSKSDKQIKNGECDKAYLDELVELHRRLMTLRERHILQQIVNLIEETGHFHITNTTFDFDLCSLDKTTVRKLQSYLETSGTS
RanGTP-Impb inh – disruptors of Ran-importin-beta complex formation – biochemical, FRET, CFP-Ran, YFP-importin-beta, homogeneous, primary screen; AID 2216; cell-free CFP-Ran/YFP-importin-beta FRET ratio; inhibition, % (test concentration not listed); 300,000 tested, 1.1% active;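 active = most replicates above 15%; inconclusive = exactly half above 15%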;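 note: 0% = DMSO wells and 100% = Ran loaded with GDP instead of GTP; wells of about 40 µL received 100 nL stock; the first replicate is given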
Ecoli rRNA inh – inhibitors of bacterial rRNA selective over humanized ribosomes | E. coli WT GFP vs humanized-ribosome RFP mutants, fluorescence, 24 h; hits give low values; DMSO median 0, no signal -100 | 350,000 tested, 1.6% active | GFP signal change (wild-type ribosome), % (concentration not given with the values);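 active = significant combined selectivity score with lowered wild-type GFP, culture density cut under 30%, mutant RFP and density less affected; inactive = any of these conditions unmet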; note: one replicate is shown; some compounds called inactive have numbers as strong as hits
T cruzi inh – T. cruzi replication inhibition. inhibition, % (no concentration beside the values). 300,000 tested, 1.4% active. T. cruzi beta-gal in NIH3T3, luminescence, 90 h;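 active = mean inhibition across valid replicates above about 55%, limit read from the data; inconclusive = mean below that limit but half or more replicates reach it; inactive = mean below it, under half of replicates reach it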;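 note: signal also drops with host cell toxicity which is not excluded here; 0% = plate median of DMSO wells and 100% = zero luminescence signal; higher percent means less beta-gal luminescence so fewer parasites; stock transfer was 50 nL into about 50 µL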
Ecoli rRNA inh OD600 – second read-out of Ecoli rRNA inh, no call of its own (marks repeat the call); OD600 change, %; measured here: OD600 growth;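 optical density of the mix in the first replicate; 0 = DMSO median and -100 = no signal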
Ecoli rRNA inh RFP – recorded beside Ecoli rRNA inh, whose call it bears; RFP signal change, %; measured here: RFP humanized mutant strains;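 first replicate; 0 = DMSO median and -100 = no signal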
An asterisk follows results filed as active; & = joins results of further samples.

CCOc1ccc(C2NC(=O)C(C#N)=C(S)N2c2cccc(C)c2)cc1OC (stereo not given) was read as Beta apoptosis -5, A1 inh -1.4, Calb FLC 3, AF4-AF9 inh -2.9, RanGTP-Impb inh 0.9, Ecoli rRNA inh -4, T cruzi inh -11, Ecoli rRNA inh OD600 2 and Ecoli rRNA inh RFP -1.3.
Screening Cc1cc2occ(CC(=O)NC3(C)CCS(=O)(=O)C3)c2cc1C (stereo not given) returned Beta apoptosis -4, A1 inh 0.2, Calb FLC 1, AF4-AF9 inh -1.3, RanGTP-Impb inh -3.7, Ecoli rRNA inh 14, T cruzi inh 1, Ecoli rRNA inh OD600 10 and Ecoli rRNA inh RFP 2.9.
COc1ccc(N2CCN(C(CNC(=O)c3cccc(Cl)c3)c3cccnc3)CC2)cc1 (stereo not given) was read as Beta apoptosis -4, Vif TR-FRET -5%, A1 inh -0.2, Calb FLC 19, RanGTP-Impb inh 1.4 and T cruzi inh 42.
NC(=O)c1cc([N+](=O)[O-])ccc1NCc1ccc(C(=O)O)cc1 was read as Beta apoptosis -3, A1 inh 1.9, AF4-AF9 inh -1.4, Ecoli rRNA inh 10, Ecoli rRNA inh OD600 -1 and Ecoli rRNA inh RFP 9.9.
For COc1cc(C(=O)NCC(C)C)cc(OC)c1OC the results were Beta apoptosis -4, Vif TR-FRET 9%, A1 inh 0.5, Calb FLC 14, RanGTP-Impb inh 0.8 and T cruzi inh -16.
CCOCCn1c(CN2CCN(C(=O)c3ccco3)CC2)nc2c1c(=O)n(C)c(=O)n2C was read as Beta apoptosis 4, A1 inh -0.1, Calb FLC 5, AF4-AF9 inh -0.4, RanGTP-Impb inh -1.9, Ecoli rRNA inh 5, T cruzi inh -18, Ecoli rRNA inh OD600 -1 and Ecoli rRNA inh RFP 3.8.
Screening O=C(CO/N=C/c1ccccc1OC(F)F)N1CCc2ccccc21 returned Beta apoptosis 2, Vif TR-FRET 26%, A1 inh -0.3, Calb FLC 20, AF4-AF9 inh -1.2, RanGTP-Impb inh -2.8, Ecoli rRNA inh 19, T cruzi inh -5, Ecoli rRNA inh OD600 16 and Ecoli rRNA inh RFP 0.1.
`Cc1nccn1CC(=O)N/N=C/c1c[nH]c2ccccc12` gave A1 inh 0.7, Calb FLC -3, AF4-AF9 inh 0.0, RanGTP-Impb inh 5.9, Ecoli rRNA inh -2, T cruzi inh -5, Ecoli rRNA inh OD600 1 and Ecoli rRNA inh RFP -1.3.
Screening Cc1nn(Cc2ccccc2)c(Cl)c1C(=O)NCCc1ccc(Cl)cc1 returned Beta apoptosis -1, Vif TR-FRET 13%, A1 inh 0.4, Calb FLC 1, RanGTP-Impb inh 1.9 and T cruzi inh 18.
`Cc1cc(Cl)ccc1C(=O)C1CCCN(C(=O)CN2CCOC2=O)C1` (stereo not given) gave Beta apoptosis -13, A1 inh 1.1, Calb FLC 5, AF4-AF9 inh 0.2, RanGTP-Impb inh 2.9, Ecoli rRNA inh -1, T cruzi inh 5, Ecoli rRNA inh OD600 -3 and Ecoli rRNA inh RFP -0.4.
Cc1ccc(NC(=S)NNC(=O)c2nn(C)cc2Cl)cc1 was read as Beta apoptosis -1, Vif TR-FRET 12%, A1 inh 0.8, Calb FLC -3, RanGTP-Impb inh 1.7 and T cruzi inh 10.
Screening Cc1cc(C)nc(NS(=O)(=O)c2ccc(NC(=O)Cc3ccccc3)cc2)n1 returned Vif TR-FRET 3%, A1 inh -5.5, Calb FLC -9, AF4-AF9 inh -3.4, RanGTP-Impb inh 4.3, Ecoli rRNA inh 16, T cruzi inh -26, Ecoli rRNA inh OD600 33 and Ecoli rRNA inh RFP 3.8.
For Cc1ccc(F)cc1NC(=O)C1CC(=O)N(CCc2ccccc2)C1 (stereo not given) the results were Beta apoptosis -1, Vif TR-FRET 11%, A1 inh 0.2, Calb FLC 8, AF4-AF9 inh 0.3, RanGTP-Impb inh -0.7, Ecoli rRNA inh 6, T cruzi inh -4, Ecoli rRNA inh OD600 7 and Ecoli rRNA inh RFP 3.8.
Screening Cc1c(C(=O)O)cc(C(C)(C)C)n1CCSCCO returned Beta apoptosis -4, Vif TR-FRET -11%, A1 inh 0.2, Calb FLC 0, AF4-AF9 inh -2.0, RanGTP-Impb inh 1.8, Ecoli rRNA inh 13, T cruzi inh -4, Ecoli rRNA inh OD600 4 and Ecoli rRNA inh RFP 1.4.
For C/C(=C\C=C\c1ccccc1)C(=O)c1c(C)cc(C)[nH]c1=O the results were Beta apoptosis -4, A1 inh 0.3, Calb FLC 34, AF4-AF9 inh 4.4, RanGTP-Impb inh 0.3, Ecoli rRNA inh 0, T cruzi inh 16, Ecoli rRNA inh OD600 -8 and Ecoli rRNA inh RFP -2.1.
`CCOc1ccccc1CNC(=O)CCCn1ccc2cc(S(=O)(=O)N3CCCC3)ccc21` gave Beta apoptosis 7, A1 inh 0.2, Calb FLC -33, AF4-AF9 inh -0.2, RanGTP-Impb inh 2.4, Ecoli rRNA inh 1, T cruzi inh 14, Ecoli rRNA inh OD600 -9 and Ecoli rRNA inh RFP -2.3.
For Cc1ccn2cc(-c3cccc([N+](=O)[O-])c3)nc2c1 the results were Beta apoptosis 9, Vif TR-FRET 12%, A1 inh -9.9, Calb FLC -8, AF4-AF9 inh 1.5, Ecoli rRNA inh 23, Ecoli rRNA inh OD600 -9 and Ecoli rRNA inh RFP -2.3.
`CCCNC(=O)NC(=O)CSc1nnc(-c2c[nH]c3ccccc23)o1` gave Beta apoptosis -6, A1 inh 0.4, Calb FLC 12, AF4-AF9 inh -1.1, RanGTP-Impb inh -2.2, Ecoli rRNA inh -6, T cruzi inh -4, Ecoli rRNA inh OD600 -8 and Ecoli rRNA inh RFP 1.8.
For C=CCN(c1ccc(Cl)cc1)S(=O)(=O)c1cccc(C(=O)OCC(=O)N(C)C)c1 the results were Beta apoptosis 1, Vif TR-FRET 9%, A1 inh 0.2, Calb FLC 7, AF4-AF9 inh -15, RanGTP-Impb inh 2.4, Ecoli rRNA inh -27, T cruzi inh 12, Ecoli rRNA inh OD600 -28 and Ecoli rRNA inh RFP -2.6.
Screening O=c1c2c3c(sc2nc(NCCOCCO)n1Cc1ccco1)CCCCC3 returned Beta apoptosis -1, Vif TR-FRET 18%, A1 inh 0.3, Calb FLC 0, AF4-AF9 inh -2.1, RanGTP-Impb inh -6.3, Ecoli rRNA inh -10, Ecoli rRNA inh OD600 -1 and Ecoli rRNA inh RFP 2.0.
`CC(C)(C)c1ccc(S(=O)(=O)N2CCN(C(=O)C3CCC3)CC2)cc1` gave Beta apoptosis 12, A1 inh -0.4, Calb FLC -4, AF4-AF9 inh -1.8, RanGTP-Impb inh inconclusive and T cruzi inh 9.
`CCOc1cc2c(cc1OCC)C(c1ccc(OC)c(OC)c1)N(c1ccc(C(=O)O)cc1)C(=O)C2` (stereo not given) gave Beta apoptosis -4, Vif TR-FRET 20%, A1 inh -0.2, Calb FLC 10, AF4-AF9 inh -0.7, Ecoli rRNA inh 18, T cruzi inh -1, Ecoli rRNA inh OD600 14 and Ecoli rRNA inh RFP 2.2.
`C[C@H]1COC(=O)[C@H](NC(=O)OCC2c3ccccc3-c3ccccc32)C/C=C\C[C@H](CC(=O)N(CCO)Cc2ccccc2)C(=O)N1` gave Beta apoptosis 31, Vif TR-FRET -3%, A1 inh -0.3, AF4-AF9 inh 5.8, Ecoli rRNA inh 7, Ecoli rRNA inh OD600 12 and Ecoli rRNA inh RFP 3.2.
Screening CCn1c(SCC(=O)NCc2ccccc2)nnc1-c1cccnc1 returned Beta apoptosis 1, Vif TR-FRET 4%, A1 inh -0.6, Calb FLC -6, RanGTP-Impb inh 6.9 and T cruzi inh -17.
Screening O=[N+]([O-])c1ncccc1OCc1ccc(-c2ccccc2)cc1 returned Beta apoptosis 3, A1 inh 0.1, Calb FLC -11, AF4-AF9 inh 1.3, RanGTP-Impb inh -5.4, Ecoli rRNA inh -10, T cruzi inh 20, Ecoli rRNA inh OD600 -14 and Ecoli rRNA inh RFP -0.1.
Screening Cc1ccc(S(=O)(=O)N2CCN(C(=O)COC(=O)c3cccnc3Cl)CC2)c(C)c1 returned Beta apoptosis -2, Vif TR-FRET 0%, A1 inh 0.6, AF4-AF9 inh 1.6, Ecoli rRNA inh -3, Ecoli rRNA inh OD600 -7 and Ecoli rRNA inh RFP 1.0.
NC(=O)c1ccc(NC(=O)c2cc(S(=O)(=O)N3CCCCC3)ccc2N2CCOCC2)cc1 was read as Beta apoptosis 3, Vif TR-FRET -9%, A1 inh 0.9, AF4-AF9 inh -11, Ecoli rRNA inh -3, Ecoli rRNA inh OD600 6 and Ecoli rRNA inh RFP -2.6.
For O=C(CCS(=O)(=O)c1cc(Br)cc2c1N(C(=O)C1CC1)CC2)NCC1CCCO1 (stereo not given) the results were Beta apoptosis -2, Vif TR-FRET -5%&-5%, A1 inh 0.7, Calb FLC -17, RanGTP-Impb inh -2.2 and T cruzi inh -6.
`Cc1cc2cc(CNC(=O)c3cccc([N+](=O)[O-])c3)ccc2n1C` gave Beta apoptosis 0, Vif TR-FRET 18%, A1 inh -0.7, Calb FLC -2, AF4-AF9 inh -7.3, RanGTP-Impb inh 3.5, Ecoli rRNA inh -15, T cruzi inh 25, Ecoli rRNA inh OD600 0 and Ecoli rRNA inh RFP 34.
`CC(C)(C)c1ccc(-c2nnc(SCC(=O)NC3CCS(=O)(=O)C3)n2N)cc1` (stereo not given) gave Vif TR-FRET 1%, A1 inh -3.7, Calb FLC 27, AF4-AF9 inh -3.3, RanGTP-Impb inh inconclusive, Ecoli rRNA inh 9, T cruzi inh 3, Ecoli rRNA inh OD600 -2 and Ecoli rRNA inh RFP 0.0.
Screening CCCOC(=O)C1=C(C)NC2=C(C(=O)CCC2)C1c1cccs1 (stereo not given) returned Beta apoptosis 1, Vif TR-FRET -2%, A1 inh 0.4, Calb FLC 8, RanGTP-Impb inh 2.1 and T cruzi inh 6.
`Cc1nc2ncnn2c(C)c1CCC(=O)NCCc1ccccc1` gave Beta apoptosis 2, Vif TR-FRET -3%, A1 inh -0.2, Calb FLC 6, RanGTP-Impb inh 0.0 and T cruzi inh 7.
For CC(C)(C)c1ccc(OCC(O)CN2CCCC2)cc1 (stereo not given) the results were Beta apoptosis -24, Vif TR-FRET -11%, A1 inh 0.0, Calb FLC -2, AF4-AF9 inh 2.6, RanGTP-Impb inh -0.2, Ecoli rRNA inh 14, T cruzi inh 7, Ecoli rRNA inh OD600 -6 and Ecoli rRNA inh RFP -6.4.

From PubChem

This is a subset; count on the stated rates, not on these rows.
